RN4220 kill: growth inhibition of S. aureus RN4220, primary screen, OD600 | 16 h | 0.33% of 330,000 active | AID 1259311, 2017 | inhibition, % (no concentration beside the values);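 active = z-score of -3 or lower and OD600 up to 0.18 on both plates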;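 note: plate controls were untreated cells for no effect and reference antibiotic for full effect; stock transfer was 100 nL into about 80 µL; one replicate is shown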
PrP 5UTR inh: inhibition of PrP 5' UTR reporter expression. 0.35% of 340,000 active. AID 488862, 2010. cell-based PrP 5' UTR mRNA reporter, plate reader. inhibition, % (concentration not given with the values);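 active = every replicate at 50% or more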;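 note: 0 = median of the neutral control wells; tested in H4 reporter cells; numbers are from one replicate; inactives centre near -14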
Mtb hypoxia inh: PubChem AID 1159583. M. tuberculosis hypoxia-regulated fluorescent reporter, fluorescence. fluorescence inhibition, % (concentration not given with the values). 0.1% of 300,000 active;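 active = 35 to 45% if threefold the growth effect, above 45% if 1.5-fold the growth effect; inactive = the rest, general growth blockers included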;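 note: wells of about 50 µL received 100 nL stock; 0% = vehicle wells and 100% = reference inhibitor wells; whole bacteria with a GFP reporter of the hypoxia response; strong numbers were not always called active; many hits fall short of the cut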
Sa ugtP lethal: growth inhibition of ugtP-null S. aureus, primary screen, RN4220 ugtP deletion, OD600. 0.54% of 330,000 active. 16 h; some inactives read as strong as hits. growth inhibition, % (concentration not given with the values);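 active = z-score under -3 and OD600 up to 0.15 on both plates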;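 note: plate controls were untreated wells for no effect and antibiotic for full effect; wells of about 80 µL received 100 nL stock; the first replicate is given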
BJeLR lethal: MLPCN primary cell-based screen for lethality selective to Ras in HRASV12 cells | inhibition, % (concentration not given with the values) | 0.17% of 300,000 active | BJeLR (HRASV12) viability, CellTiter-Glo ATP luminescence, 48 h; reference of the scale not given here;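 active = replicate mean above 50%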;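 note: 50 nL library stock added to about 25 µL; numbers are from one replicate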
Bead autofluor: flagged as autofluorescent in microsphere protease counterscreen | compound autofluorescence counterscreen, microsphere flow cytometry; hits give high values | fluorescence intensity (no concentration beside the values) | 3.1% of 360,000 active | AID 624483;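 active = at least 3 SD above the mean of all compounds, about 16000 in these data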;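 note: 100 nL of 1 mM stock went into each well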
Mtb hypoxia inh growth: further read-out of Mtb hypoxia inh, marked with its call; growth inhibition, %; measured here: M. tuberculosis growth (absorbance);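 0% = vehicle and 100% = reference antibiotic; read after six days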
* = called active by the depositor. Rows are unselected; any-hit rate near 4%.

What do the screens show for `NS(=O)(=O)c1ccc(CCNC(=O)Cn2c(=O)c3cccn3c3cccnc32)cc1`?
RN4220 kill: 0.6; PrP 5UTR inh: -2; Mtb hypoxia inh: 2; Sa ugtP lethal: -2; BJeLR lethal: 7; Bead autofluor: 5170; Mtb hypoxia inh growth: 4

Results for CCCn1c(N)c(C(=O)COC(=O)CNC(=O)c2ccccc2OCC)c(=O)[nH]c1=O ?
RN4220 kill: 0.7; PrP 5UTR inh: -15; Mtb hypoxia inh: -2; Sa ugtP lethal: 3; Bead autofluor: 5486; Mtb hypoxia inh growth: -3

How did O=C(NC1CCSC1=O)C1CCCCC1 (configuration not stated) do in these assays?
RN4220 kill: -1.4; PrP 5UTR inh: -13; Mtb hypoxia inh: -7; Sa ugtP lethal: -3; BJeLR lethal: 15; Bead autofluor: 4279; Mtb hypoxia inh growth: 10

Results for Cc1ccc(-c2csc3ncnc(Cl)c23)cc1 ?
RN4220 kill: 0.3; PrP 5UTR inh: -24; Mtb hypoxia inh: 8; Sa ugtP lethal: 5; BJeLR lethal: -1; Bead autofluor: 7931; Mtb hypoxia inh growth: 10

What do the screens show for `O=C(NC(=S)Nc1cc(-c2nc3ccccc3[nH]2)ccc1Cl)c1ccc2c(c1)OCO2`?
PrP 5UTR inh: -80; BJeLR lethal: 20; Bead autofluor: 2825

How did Cc1nc2oc3ccc(F)cc3c(=O)c2cc1C(=O)NC(C)(C)C do in these assays?
RN4220 kill: 10.0; PrP 5UTR inh: -23; Mtb hypoxia inh: 3; Sa ugtP lethal: 1; Bead autofluor: 4757; Mtb hypoxia inh growth: 0

Results for O=C(O)C1CCC(=O)N(C2CCCCC2)C1c1ccccc1 (configuration not stated) ?
RN4220 kill: 3.7; PrP 5UTR inh: -18; Mtb hypoxia inh: 19; Sa ugtP lethal: 4; BJeLR lethal: -9; Bead autofluor: 4336; Mtb hypoxia inh growth: 17

How did CCOc1ccc(S(=O)(=O)N(C)c2ccc(OCC(=O)NC3=NCCS3)cc2)cc1 do in these assays?
RN4220 kill: -0.8; PrP 5UTR inh: -22; Mtb hypoxia inh: -1; Sa ugtP lethal: 3; BJeLR lethal: -1; Bead autofluor: 3980; Mtb hypoxia inh growth: 14

How did CC(CC(=O)Nc1ccccc1)=NNC(=O)COc1ccc(C)cc1Br do in these assays?
RN4220 kill: 0.7; Mtb hypoxia inh: 2; Sa ugtP lethal: 2; Mtb hypoxia inh growth: 5

Results for CC(/C=C/c1ccc2c(c1)OCO2)=N\NC(=O)c1cccc([N+](=O)[O-])c1 ?
PrP 5UTR inh: -19; BJeLR lethal: 5; Bead autofluor: 8062

Results for CCOc1ccc(S(=O)(=O)N2CC(=O)Nc3ccccc32)cc1C#N ?
RN4220 kill: 2.4; PrP 5UTR inh: -21; Mtb hypoxia inh: -2; Sa ugtP lethal: 7; BJeLR lethal: 3; Bead autofluor: 3698; Mtb hypoxia inh growth: 12

Results for N#Cc1c(F)cccc1N1CCOCC1 ?
RN4220 kill: 0.7; PrP 5UTR inh: -5; Mtb hypoxia inh: 9; Sa ugtP lethal: 0; BJeLR lethal: -2; Bead autofluor: 3452; Mtb hypoxia inh growth: 13

Results for CC1(C(=O)Nc2ccc3c(c2)OCO3)CC1(Cl)Cl (configuration not stated) ?
RN4220 kill: 0.5; PrP 5UTR inh: -19; Mtb hypoxia inh: 7; Sa ugtP lethal: 7; BJeLR lethal: -14; Bead autofluor: 4874; Mtb hypoxia inh growth: -11

Results for COc1cc(C(=O)NCC2CCCCC2)cc(OC)c1OC ?
RN4220 kill: 3.8; PrP 5UTR inh: -13; Mtb hypoxia inh: 14; Sa ugtP lethal: 4; BJeLR lethal: -5; Bead autofluor: 4011; Mtb hypoxia inh growth: 7

What do the screens show for `Cc1sc2ncnc(N3CCC(C(=O)Nc4ccc(S(N)(=O)=O)cc4)CC3)c2c1C`?
RN4220 kill: 6.2; PrP 5UTR inh: -15; Mtb hypoxia inh: 0; Sa ugtP lethal: -4; Mtb hypoxia inh growth: -2

Next section (4 carried over from the part before).
Results for N#Cc1c(F)cccc1N1CCOCC1 ?
RN4220 kill: 0.7; PrP 5UTR inh: -5; Mtb hypoxia inh: 9; Sa ugtP lethal: 0; BJeLR lethal: -2; Bead autofluor: 3452; Mtb hypoxia inh growth: 13

Results for CC1(C(=O)Nc2ccc3c(c2)OCO3)CC1(Cl)Cl (configuration not stated) ?
RN4220 kill: 0.5; PrP 5UTR inh: -19; Mtb hypoxia inh: 7; Sa ugtP lethal: 7; BJeLR lethal: -14; Bead autofluor: 4874; Mtb hypoxia inh growth: -11

Results for COc1cc(C(=O)NCC2CCCCC2)cc(OC)c1OC ?
RN4220 kill: 3.8; PrP 5UTR inh: -13; Mtb hypoxia inh: 14; Sa ugtP lethal: 4; BJeLR lethal: -5; Bead autofluor: 4011; Mtb hypoxia inh growth: 7

What do the screens show for `Cc1sc2ncnc(N3CCC(C(=O)Nc4ccc(S(N)(=O)=O)cc4)CC3)c2c1C`?
RN4220 kill: 6.2; PrP 5UTR inh: -15; Mtb hypoxia inh: 0; Sa ugtP lethal: -4; Mtb hypoxia inh growth: -2

What do the screens show for `O=C1CC(N2CCOCC2)=NN1c1ccc([N+](=O)[O-])cc1`?
RN4220 kill: 4.2; PrP 5UTR inh: -105; Mtb hypoxia inh: 0; Sa ugtP lethal: -2; BJeLR lethal: -3; Bead autofluor: 4273; Mtb hypoxia inh growth: 12

Results for CC(=O)Nc1ccc(S(=O)(=O)N2CCSC2c2ccco2)cc1 (configuration not stated) ?
RN4220 kill: -7.2; PrP 5UTR inh: -14; Mtb hypoxia inh: 13; Sa ugtP lethal: 12; BJeLR lethal: -5; Bead autofluor: 4273; Mtb hypoxia inh growth: 8

What do the screens show for `CC(C)c1ccc(/C=N/NC(=O)c2nnn(-c3nonc3N)c2CN(C)C2CCCCC2)cc1`?
PrP 5UTR inh: -2; BJeLR lethal: 0; Bead autofluor: 5939

What do the screens show for `COC(=O)C1=C[C@@H](C(=O)OC)[C@@H]2C3=C(C(=O)[C@]2(C)NC(=O)c2ccccc2)[C@H](C)n2c(=O)n(-c4ccccc4)c(=O)n2[C@@H]3C1`?
PrP 5UTR inh: -18; BJeLR lethal: 0; Bead autofluor: 3811

How did CCCCn1nnc(NC(=O)CC23CC4CC(CC(C4)C2)C3)n1 do in these assays?
RN4220 kill: -4.7; PrP 5UTR inh: -15; Mtb hypoxia inh: 0; Sa ugtP lethal: -18; BJeLR lethal: -12; Bead autofluor: 3303; Mtb hypoxia inh growth: 11

Results for COc1cc2c(=O)n(Cc3ccccc3)c(=O)n(CC(=O)NCC3CCCO3)c2cc1OC (configuration not stated) ?
RN4220 kill: 4.1; PrP 5UTR inh: -3; Mtb hypoxia inh: 0; Sa ugtP lethal: 8; BJeLR lethal: -8; Bead autofluor: 10511; Mtb hypoxia inh growth: -6

What do the screens show for `Clc1ccc(CSc2nnc([C@@H]3CCCN3)o2)cc1`?
RN4220 kill: 0.3; PrP 5UTR inh: -13; Sa ugtP lethal: -1; BJeLR lethal: -1; Bead autofluor: 6582

Results for COc1ccc(C(C#N)N2CCC(c3ccccc3)=N2)cc1OC (configuration not stated) ?
RN4220 kill: 5.4; PrP 5UTR inh: -31; Mtb hypoxia inh: 11; Sa ugtP lethal: 18; BJeLR lethal: 7; Bead autofluor: 3872; Mtb hypoxia inh growth: 5

What do the screens show for `CC(=N/N=C1/NC(=O)C(Cc2ccccc2)S1)c1ccccc1` (configuration not stated)?
RN4220 kill: -4.3; Mtb hypoxia inh: 10; Sa ugtP lethal: 7; Mtb hypoxia inh growth: -1

Results for CCCc1cc(C(=O)Nc2cc(OC)c(Cl)cc2OC)no1 ?
RN4220 kill: -14; PrP 5UTR inh: -9; Mtb hypoxia inh: -1; Sa ugtP lethal: -6; BJeLR lethal: 1; Bead autofluor: 5373; Mtb hypoxia inh growth: 1

What do the screens show for `CCn1c(SCC(=O)NC(C)C(C)C)nc2cc(S(=O)(=O)N3CCOCC3)ccc21` (configuration not stated)?
RN4220 kill: 4.2; PrP 5UTR inh: -2; Mtb hypoxia inh: 4; Sa ugtP lethal: 4; BJeLR lethal: 3; Bead autofluor: 5675; Mtb hypoxia inh growth: 7

Results for O=C(CSc1nc2ccsc2c(=O)n1Cc1ccccc1)NCc1ccco1 ?
RN4220 kill: 3.4; PrP 5UTR inh: -27; Mtb hypoxia inh: 5; Sa ugtP lethal: -1; BJeLR lethal: 0; Bead autofluor: 10935; Mtb hypoxia inh growth: 6

What do the screens show for `O=C(O)CCC(=O)Nc1ccccc1C(=O)Nc1ccccc1`?
RN4220 kill: 0.2; PrP 5UTR inh: -14; Mtb hypoxia inh: 18; Sa ugtP lethal: 1; BJeLR lethal: -1; Bead autofluor: 3394; Mtb hypoxia inh growth: -6

Results for O=C(CC1Sc2ccccc2NC1=O)OC(C(=O)NCCc1ccccc1)c1cccnc1 (configuration not stated) ?
RN4220 kill: -15; PrP 5UTR inh: -9; Mtb hypoxia inh: -1; Sa ugtP lethal: -8; BJeLR lethal: -1; Bead autofluor: 2768; Mtb hypoxia inh growth: -4

Results for CCOC(=O)N1CCN(C(=O)c2cc3c(=O)n(C)c4ccccc4c3n2C)CC1 ?
RN4220 kill: 2.3; PrP 5UTR inh: -27; Sa ugtP lethal: 5; BJeLR lethal: 0; Bead autofluor: 6312

What do the screens show for `CCOc1ccc(N2C(=O)Nc3ccccc3C2(O)C(=O)NCc2ccc3c(c2)OCO3)cc1` (configuration not stated)?
RN4220 kill: 2.5; PrP 5UTR inh: -14; Mtb hypoxia inh: 6; Sa ugtP lethal: -1; BJeLR lethal: 3; Bead autofluor: 6595; Mtb hypoxia inh growth: 7

How did CCOc1ccc(/C=N/NC(=O)COc2ccccc2-c2ccccc2)cc1 do in these assays?
PrP 5UTR inh: -7; BJeLR lethal: 1; Bead autofluor: 2365

How did Cc1cc2c(c(=O)o1)C(Cc1ccccc1)C(C#N)=C(N)O2 (configuration not stated) do in these assays?
RN4220 kill: 0.9; PrP 5UTR inh: 8; Sa ugtP lethal: 7; BJeLR lethal: -9; Bead autofluor: 4576

What do the screens show for `CN(C)S(=O)(=O)c1ccc(Cl)c(NC(=O)CN2CCCC2)c1`?
RN4220 kill: 2.4; PrP 5UTR inh: 8; Mtb hypoxia inh: 13; Sa ugtP lethal: 13; BJeLR lethal: -13; Bead autofluor: 3415; Mtb hypoxia inh growth: 4

Results for C[C@]12c3[nH]c4cc(-c5ccco5)ccc4c3CCN1C(=O)[C@@H](CC(=O)NCc1ccco1)C[C@@H]2C(=O)N1CCCCC1 ?
RN4220 kill: -2.2; PrP 5UTR inh: -45; Mtb hypoxia inh: 2; Sa ugtP lethal: 7; Bead autofluor: 3975; Mtb hypoxia inh growth: 4

How did O=C(Nc1ccccc1)Nc1nnc(SCc2ccc(Cl)cc2)s1 do in these assays?
PrP 5UTR inh: -22; BJeLR lethal: -13; Bead autofluor: 2763

Results for CCOC1=NS(=O)(=O)c2ccccc21 ?
RN4220 kill: 6.3; PrP 5UTR inh: -7; Mtb hypoxia inh: 4; Sa ugtP lethal: 3; BJeLR lethal: 3; Bead autofluor: 2528; Mtb hypoxia inh growth: 13

What do the screens show for `COc1ccc(NC(=O)c2c(-c3ccccc3Cl)noc2C)c(OC)c1`?
RN4220 kill: 3.1; PrP 5UTR inh: -25; Mtb hypoxia inh: -12; Sa ugtP lethal: 2; BJeLR lethal: -5; Bead autofluor: 9303; Mtb hypoxia inh growth: 3

Results for COc1cccc(-c2c(-c3cc(OC)cc(OC)c3)n(C)c3ccc(-c4ccc5cc[nH]c5c4)cc23)c1 ?
RN4220 kill: -2.4; PrP 5UTR inh: -20; Mtb hypoxia inh: 13; Sa ugtP lethal: -4; Bead autofluor: 2814; Mtb hypoxia inh growth: -1

Results for O=C(CCNC(=O)c1ccc(Br)cc1)NCc1ccccn1 ?
RN4220 kill: 5.9; PrP 5UTR inh: -31; Mtb hypoxia inh: 3; Sa ugtP lethal: 10; BJeLR lethal: -2; Bead autofluor: 5671; Mtb hypoxia inh growth: 1

What do the screens show for `COc1ccccc1CNC(=O)CSC(=S)N1CCCC1`?
RN4220 kill: 3.1; PrP 5UTR inh: -6; Mtb hypoxia inh: 10; Sa ugtP lethal: 1; BJeLR lethal: 7; Bead autofluor: 4622; Mtb hypoxia inh growth: 0

What do the screens show for `COc1cccc(NC(=O)CN2C(=O)NC3(CCCC3)C2=O)c1`?
RN4220 kill: 1.6; PrP 5UTR inh: -2; Mtb hypoxia inh: 5; Sa ugtP lethal: 3; BJeLR lethal: -11; Bead autofluor: 5820; Mtb hypoxia inh growth: 17

Screens deposited in PubChem BioAssay by several laboratories.
